SARS PLP yeast: SARS-CoV PLP inhibition in yeast; S. cerevisiae expressing SARS-CoV PLpro, growth rescue; control for the full effect not named in the record; Potency, µM (series often up to 32.9 µM), without a hit: at the top dose activity, positive = growth rescue; 330,000 tested, 0.19% active; AID 485353; note: 0% is about no effect; nearly all actives have a fitted effect of over 55% in size; growth read by luminescence after 48 h
Cruzain Triton: inhibitors of Trypanosoma cruzi cruzain with detergent; Potency, µM, for the others: max response, negative = inhibition, hits mostly inhibitors; 200,000 tested, 0.43% active; purified cruzain, Z-FR-AMC fluorescence, 0.01% Triton; P25779; AID 1478; active = well fitted curve in the direction sought with a large enough effect; inconclusive = small, poorly fitted or top-dose-only effect, or another doubt; inactive = no such curve, though single readings can be large; an effect the other way counts as inactive or inconclusive;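 note: plate controls were neutral wells for no effect and buffer without enzyme for full effect; nearly all actives have a fitted effect of over 40% in size; top concentration of the series not given in the record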
Target sequence (P25779 123-467 limits assumed): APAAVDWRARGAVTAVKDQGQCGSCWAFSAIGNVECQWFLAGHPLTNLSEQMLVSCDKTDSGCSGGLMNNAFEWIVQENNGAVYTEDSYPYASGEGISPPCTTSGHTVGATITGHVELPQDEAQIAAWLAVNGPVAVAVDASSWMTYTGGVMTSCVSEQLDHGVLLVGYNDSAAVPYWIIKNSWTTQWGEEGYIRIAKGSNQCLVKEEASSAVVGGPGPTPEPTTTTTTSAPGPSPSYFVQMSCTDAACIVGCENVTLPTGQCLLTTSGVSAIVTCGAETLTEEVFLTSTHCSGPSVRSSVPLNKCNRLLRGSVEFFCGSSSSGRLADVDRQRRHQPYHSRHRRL
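Cysteine protease activity tested under reducing, mildly acidic conditions (100 mM sodium acetate pH 5.5, 5 mM DTT) plus 0.01% Triton X-100. Cruzain 1.5 nM; substrate Z-FR-AMC 2 uM; 15 min compound preincubation at room temperature.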
Lassa entry inh: blocks Lassa virus binding to or entry into cells. Lassa virus pseudotype entry inhibition, cell reporter; control for the full effect not named in the record. Potency, µM (highest dose often 37.9 µM), for the others: top-dose activity change, negative = inhibition, hits mostly inhibitors. 300,000 tested, 1.2% active. AID 540256; active means well fitted inhibition curve with a large enough effect; inconclusive means small, poorly fitted or top-dose-only effect, or effect the other way; inactive means flat fitted curve, though single readings scatter; tested in HEK293 cells; note: % is set by controls: 0 for no effect and ±100 for the full control effect; nearly all actives have a fitted effect of over 50% in size; luciferase read-out
RE007 growth inh: less growth of the S. pombe RE007 Vpr strain; S. pombe RE007 Vpr strain, BacTiter-Glo ATP luminescence, 24 h; control for the full effect not named in the record; Potency, µM (series often up to 92.2 µM), without a hit: at the highest dose activity change, negative = less growth; 360,000 tested, 0.21% active; AID 651644; active = well fitted falling curve with a large enough effect; inconclusive = small, poorly fitted or top-dose-only effect; inactive = no such curve, though single readings can be large or run the other way;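 note: % is set by controls: 0 for no effect and ±100 for the full control effect; nearly all actives have a fitted effect of over 50% in size; the assay follows cell death caused by Vpr and the record does not say whether a fall means rescue or toxicity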
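Fission yeast strain RE007, carrying one chromosomally integrated HIV-1 vpr copy, was seeded at OD 0.01 in PMG+AL medium with 23 nL pinned compound. After 24 h at 30 °C and 99% humidity, viability was read by BacTiter-Glo luminescence.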
2A StopGo: FMDV 2A StopGo reporter, luciferase signal; human cells with a luciferase reporter of 2A StopGo recoding; control for the full effect not named in the record; 410,000 tested, 1.2% active; Potency, µM (top dose mostly 57.9 µM), without a hit: at the highest dose signal change, negative = less light; active = well fitted falling curve with a large enough effect; inconclusive = small, poorly fitted or top-dose-only effect; inactive = no such curve, though single readings can be large or run the other way; tested in HEK293T cells; note: % is set by controls: 0 for no effect and ±100 for the full control effect; nearly all actives have a fitted effect of over 45% in size; luciferase light after 4 h
Cruzain noTriton: cruzain (T. cruzi) inhibition without detergent. Potency, µM, inactives show max response, negative = inhibition, hits mostly inhibitors. purified cruzain, Z-FR-AMC fluorescence, no detergent. P25779. 200,000 tested, 2.3% active; active = well fitted curve in the direction sought with a large enough effect; inconclusive = small, poorly fitted or top-dose-only effect, or another doubt; inactive = no such curve, though single readings can be large; an effect the other way counts as inactive or inconclusive;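 note: plate controls were enzyme without inhibitor for no effect and buffer without enzyme for full effect; nearly all actives have a fitted effect of over 40% in size; top concentration of the series not given in the record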
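Detergent-free condition (0.00005% Triton X-100) in acetate buffer pH 5.5 with DTT. 1.5 nM enzyme and compound were pre-mixed 15 min, then 2 uM Z-FR-AMC substrate added; reaction progress from fluorescence change between first and third reads (60 s).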
NS1 function inh: influenza NS1 inhibition | S. cerevisiae slowed by influenza A NS1, growth recovery by OD600 | Potency, µM (series often up to 46.1 µM), inactives show at the highest dose activity, positive = more growth | 270,000 tested, 0.4% active; note: actives are rising curves; nearly all actives have a fitted effect of over 50% in size
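Recovery from NS1-induced slow growth read by OD600 in budding yeast switched to galactose assay medium (pH 6.0, -URA) at 1:100 dilution. Compound 23 nl per well; the matching strain lacking NS1 serves as control.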
Marburg entry inh: Marburg virus entry inhibition | Marburg virus pseudotyped entry inhibition, cell reporter; control for the full effect not named in the record; about a third of the inactives were read at about 46 µM | Potency, µM (doses to about 37.8 µM), inactives show top-dose activity change, negative = inhibition, hits mostly inhibitors | 300,000 tested, 1.8% active | AID 540276; active = well fitted inhibition curve with a large enough effect; inconclusive = small, poorly fitted or top-dose-only effect, or effect the other way; inactive = flat fitted curve, though single readings scatter; tested in HEK293 cells; about a fifth of its hits are not listed in these tables; note: % is set by controls: 0 for no effect and ±100 for the full control effect; luciferase read-out
Numbers without * were called inactive; ? = inconclusive; nt = no result given; & = joins results of further samples; [ ] = remark or other dose. Unless noted, calls come from the whole dose curve; as a rule, active means well fitted rising curve with a large enough effect; inconclusive means small, poorly fitted or top-dose-only effect; inactive means no such curve, though single readings can be large or run the other way. Potency is the fitted concentration of half-maximal effect.

SMILES	SARS PLP yeast	Cruzain Triton	Lassa entry inh	RE007 growth inh	2A StopGo	Cruzain noTriton	NS1 function inh	Marburg entry inh
Cc1ccc(-n2c(O)c(/C=N/N3CCCCCC3)c(=O)[nH]c2=O)cc1C	-2%	nt	-24%	48%	-7%	nt	-3%	8%[46.1 µM]
COc1ccc(C(=N/O)/C(=N/O)c2ccc(OC)cc2)cc1	0%	-2.6%	-11%	-8%	-9%	-5%	0%	-10%
COc1cccc(CNC(=O)C2CCCN(S(C)(=O)=O)C2)c1 (stereo not drawn)	3%	3.2%	-3%	-3%	nt	-5%	-11%	7%
Cc1c(C(=O)OC2CCCCCC2)[nH]c2c1C(=O)CC(c1ccccc1Cl)C2 (stereo not drawn)	nt	-1.5%	nt	nt	0%	0%	nt	nt
CC1=CC[C@@]23CCCN2C(=O)CCC[C@H]3C1	7%	-2.2%	nt	0%	-29%	-1%	nt	nt
O=C(c1ccc(N2CCCC2)c([N+](=O)[O-])c1)N1CCN(S(=O)(=O)c2ccccc2)CC1	-4%	nt	-22%	-19%	?	nt	nt	-6%
COc1cc(-c2n[nH]c(=S)n2Cc2ccccc2)cc(OC)c1OC	1%	nt	7%[46.1 µM]	3%	-8%	nt	-5%	3%[46.1 µM]
O=C(Nc1ccc(F)c(F)c1)c1cc(S(=O)(=O)NCc2ccc3c(c2)OCO3)ccc1F	nt	1.0%	23%[46.1 µM]	nt	0%	5%	nt	nt
O=C1C=C(c2ccccc2)C(c2ccccc2)C1O (stereo not drawn)	nt	nt	15%[46.1 µM]	-3%	-17%	nt	nt	1%
Cc1ccc(Cl)cc1N1CCN(C(=O)CCc2nnc3n(C)c(=O)c4ccccc4n23)CC1	nt	-1.5%	nt	nt	-13%	-17%	nt	13%[46.1 µM]
O=[N+]([O-])c1cccc(CN2C[C@@]34C=C[C@@H](C[C@@H]3S2(=O)=O)O4)c1	-2%	nt	nt	-2%	-23%	nt	16%	nt
O=C(c1cc(-c2cccc(Cl)c2)nc2ccccc12)N1CCN(c2ccccn2)CC1	2%	nt	-1%	16%	-29%	nt	-84%	?
C/C(CC(=O)Nc1ccccc1Br)=N\NC(=O)C(=O)N1CCCC1	-14%	2.9%	25%	7%	5%	1%	-17%	-6%
O=C(Nc1nc2c(s1)CCc1ccccc1-2)c1ccco1	-25%	-8.7%	17%	?	-8%	-14%	-98%	?
Cc1nc2ccc(S(=O)(=O)NCC(=O)N3CCC(C)CC3)cc2s1	9%	7.8%	-3%	-10%	-2%	1%	1%	-21%
COC(=O)C1=C(C)N(Cc2ccccc2)C(=O)/C1=C\c1ccco1	-1%	nt	-25%[46.1 µM]	8%	-19%	nt	3%	?
Cc1cc(SCC(=O)N(C)C2CCS(=O)(=O)C2)nc2c(C)cccc12 (stereo not drawn)	-1%	nt	?	11%	-12%	nt	nt	?
CCCN1CCN(C(=O)Cn2nc(C)n3c(cc4c(OC)cccc43)c2=O)CC1	nt	nt	15%	4%	-11%	nt	nt	6%[46.1 µM]
CC(=O)Nc1ccc(NC(=S)NC(=O)c2cc3ccccc3o2)cc1	18%	-0.9%	-6%	8%	6%	-6%	8%	-4%
O=C(Nc1ccc(Oc2cccc(C(F)(F)F)c2)nc1)c1ccccc1	-1%	nt	?	2%	?	nt	-6%	?
CCOc1ccc(N(C)S(=O)(=O)c2cc(-c3cc(C)no3)ccc2OC)cc1	-8%	-1.6%	?	0%	-15%&-24%	?	-7%	nt
Fc1ccc(CCNCc2ccc(Cl)c(Cl)c2)cc1	3%	-0.7%	3%	15%	?	-2%	-24%	-4%
Cc1ccc(C2(c3ccc(C)cc3)CC2C(=O)NCc2cccnc2)cc1 (stereo not drawn)	0%	nt	-18%	-1%	-13%	nt	-4%	0%
S=c1[nH]nc(-c2ccncc2)n1/N=C/C=C/c1ccccc1	1%	nt	0%	4%	23%	nt	-1%	?
O=C(N/N=C1\CCCc2ccccc21)c1ccc([N+](=O)[O-])cc1Cl	-2%	-4.1%	-9%	-6%	8%	-5%	10%	16%
Cc1nn(CC(=O)N2CCCC2)c(=O)c2cc3cc(F)ccc3n12	?	nt	nt	-6%	-11%	nt	-7%	nt
CCN(CC(=O)Nc1ccc(NC(C)=O)cc1)C(=O)/C=C/c1cn(-c2ccccc2)nc1-c1ccc(C)cc1	21%	nt	0%	-18%	14%	nt	?	?
Cc1cc(C(=O)CN2C(=O)C(=O)N(C3CCCC3)C2=O)c(C)n1-c1ccc(F)cc1	1%	nt	?	-3%	-9%	nt	nt	-16%[46.1 µM]
CS(=O)(=O)N(CC(=O)NCc1ccc2c(c1)OCO2)c1ccccc1	3%	-0.5%	8%	0%	9%	-7%	-6%	9%
C=CCN(c1ccccc1)S(=O)(=O)c1cccc(C(=O)NCc2ccco2)c1	0%	nt	?	12%	-10%	nt	nt	-44%
Cc1onc(-c2c(Cl)cccc2Cl)c1C(=O)NC(=S)N1CCOCC1	2%	nt	nt	13%	-15%	nt	2%	2%
CCc1ccc(N2CCn3c2nc2c3c(=O)n(Cc3c(F)cccc3Cl)c(=O)n2C)cc1	nt	-6.4%	?	nt	-6%	-4%	nt	nt
CCC(C(=O)OCCN(CC)CC)c1ccccc1 (stereo not drawn)	5%	3.9%	7%	4%[18.4 µM]	-11%	0%	-5%	2%&2%&2%&2%
OC(COCC1COc2ccccc2O1)CN1CCCCC1 (stereo not drawn)	10%	-0.5%	0%	-10%	0%	2%	0%	-3%
Cc1cccc(CN2CCN(CC(=O)O)C2=O)c1	8%	0.5%	-17%[14.3 µM]	-4%	-7%	-7%	-11%	-3%
C=CCNC(=O)C1CCN(S(=O)(=O)c2cccs2)CC1	19%	nt	14%[46.1 µM]	1%	-3%	nt	6%	6%[46.1 µM]
O=C(N/N=C/c1ccco1)c1cccc(NC(=O)c2cccc(Cl)c2)c1	-3%	nt	?	17%	8%	nt	7%	-11%[46.1 µM]
Cc1ccc2c(CN(C)Cc3ccc(OC(F)F)cc3)cc(=O)oc2c1C	-3%	nt	?	-3%	?	nt	-39%	?
COc1ccc(S(=O)(=O)N2CCCC(C(=O)NCc3ccccn3)C2)cc1Cl (stereo not drawn)	-3%	3.4%	0%	-3%	nt	-1%	-7%	10%
CCc1cc2cc(OC)ccc2nc1SCC(=O)Nc1cc(OC)c(OC)cc1C(=O)O	-1%	nt	nt	-3%	20%	nt	11%	nt
C/C(=N\NC(=O)C1CC1(C)c1ccccc1)c1ccco1 (stereo not drawn)	-6%	3.3%	?	3%	-26%	-1%	13%	1%
CCCCCCCNC(=O)CC(NS(=O)(=O)c1ccc(NC(C)=O)cc1)C(C)C (stereo not drawn)	-42%	0.7%	?	3%	0%	24%	2%	-10%
CC(=O)Nc1ccc2nc(NC(=O)COc3ccccc3)sc2c1	-1%	nt	14%	9%	-2%	nt	nt	27%
Cc1ccc(Cl)cc1N1CCN(C(=O)C2CCC(CNS(=O)(=O)c3cccs3)CC2)CC1 (stereo not drawn)	nt	-3.7%	0%[46.1 µM]	nt	?	-1%	nt	1%[46.1 µM]
Nc1cc2c(cc1Cl)-c1ccccc1C2=NO	nt	nt	29%	37%	41%[activator]	nt	nt	?
CN(C(=O)CSc1nc2ccccc2n1Cc1ccccc1C#N)c1ccccc1	nt	-1.2%	?	nt	-4%	-10%	nt	nt
Cc1ccc(C)c(OCCCC(=O)Nc2ccccc2C(N)=O)c1	0%	nt	nt	-11%	-22%	nt	2%	nt
C/C=C(/C)C(=O)O[C@@H]1c2c(ccc3ccc(=O)oc23)O[C@@H]1C(C)(C)OC(C)=O	-5%	-5.5%	-22%	-12%	-27%	-2%	12%	7%
CCOc1ccc(-c2cc(NC(=O)Nc3ccccc3C(F)(F)F)c(C(=O)OC)s2)cc1	nt	-2.5%	?	nt	19%	7%	nt	17%[46.1 µM]
CC1(C)CC2(CCO1)OC(=O)CC2C(=O)Nc1cccc2ccccc12 (stereo not drawn)	4%	0.0%	12%	-28%	4%	-3%	-4%	13%
CC1CCN(CCC(=O)Nc2nccs2)CC1	-2%	nt	0%[46.1 µM]	-11%	-16%	nt	0%	6%[46.1 µM]
CC(C)c1nc2ccc(Br)cn2c1NC1CCCC1	1%	nt	nt	-23%	-11%	nt	-32%	nt
O=C(Nc1ccccc1)c1ccc(S(=O)(=O)NCc2cccnc2)cc1	0%	nt	-46%	-12%	?	nt	4%	?
Cn1c(SCc2ccccc2C#N)nc2ccccc2c1=O	2%	nt	-14%	-2%	-16%	nt	-62%	10%[46.1 µM]
CCOC(=O)c1ccccc1NC(=O)c1sc2ncn(Cc3cccc(F)c3)c(=O)c2c1C	nt	1.0%	12%[46.1 µM]	nt	-5%	-1%	nt	nt
CCOc1ccc(NC(=O)Cn2nc(-c3ccncc3)ccc2=O)cc1	nt	-1.1%	3%[46.1 µM]	nt	-3%	7%	nt	nt
COc1ccc(CCNC(=O)c2ccc(CS(=O)(=O)Cc3cccc(C)c3)o2)cc1OC	-3%	0.3%	?	-5%	40µM*	13%	-2%	?
COc1cc(/C=C2\SC(=S)N(NC(=O)c3ccccc3OC)C2=O)ccc1O	3%	nt	0%	-15%	-7%	nt	8%	16%[46.1 µM]
O=C1CCCN2N=C(SCC(=O)N3CCCCC3)SC2=N1	-3%	nt	nt	-11%	-7%	nt	3%	nt
Cc1c(C(N)=O)c(-c2ccccc2)nn1-c1ccccc1	10%	-0.5%	21%	3%	-11%	1%	0%	24%

The listing continues.
SMILES	SARS PLP yeast	Cruzain Triton	Lassa entry inh	RE007 growth inh	2A StopGo	Cruzain noTriton	NS1 function inh	Marburg entry inh
c1ccc(-c2nnc(SCc3nc4ccccc4[nH]3)o2)cc1	-9%	25µM*	1%	?	?	13µM*	-97%	?
CCCCSCCCNC(=O)Nc1cccc(OC)c1	-7%	-6.8%	-6%	2%	nt	-3%	-111%	27%
CSc1ncccc1C(=O)OCC(=O)Nc1ccc(C)c(S(=O)(=O)N2CCOCC2)c1	5%	nt	?	-3%	?	nt	nt	?
COC(=O)c1ccccc1NC(=O)CSc1nnc(-c2cccc(NC(C)=O)c2)n1C	2%	0.4%	11%	8%	0%	1%	-9%	-4%
CCN1C(=O)CC(NC2CCN(C(=O)c3ccc(F)cc3)CC2)C1=O (stereo not drawn)	2%	nt	-8%	-17%	4%	nt	-6%	2%

Bioassay records deposited in PubChem by National Center for Advancing Translational Sciences (NCATS).
